BJeLR viability: BJeLR cell viability loss | 0.17% of 300,000 active | inhibition, % (test concentration not listed) | BJeLR (HRASV12) viability, CellTiter-Glo ATP luminescence, 48 h; reference of the scale not given here | AID 1554;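 active = replicate mean above 50%; inconclusive = above 50% but judged a plate artefact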;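 note: 50 nL library stock added to about 25 µL; numbers are from one replicate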
ugtP null kill: kills S. aureus RN4220 lacking UgtP; 0.54% of 330,000 active; growth inhibition, % (test concentration not listed); S. aureus RN4220 ugtP deletion, OD600 growth, 16 h; some inactives read as strong as hits; AID 1259309;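 active = z-score under -3 and OD600 up to 0.15 on both plates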;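 note: plate controls were untreated wells for no effect and antibiotic for full effect; wells of about 80 µL received 100 nL stock; the first replicate is given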
Autofluor counter: counter-screen for toxin protease inhibitors: compound fluorescence. compound autofluorescence counterscreen, microsphere flow cytometry; active compounds read high. fluorescence intensity (no concentration beside the values). 3.1% of 360,000 active;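 active = at least 3 SD above the mean of all compounds, about 16000 in these data; inconclusive = too few beads counted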;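 note: 100 nL of 1 mM stock went into each well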
Mtb hypoxia rep: reduces hypoxia-regulated biosensor signal in M. tuberculosis; fluorescence inhibition, % (concentration not given with the values); 0.1% of 300,000 active; AID 1159583; M. tuberculosis hypoxia-regulated fluorescent reporter, fluorescence;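 active = 35 to 45% if threefold the growth effect, above 45% if 1.5-fold the growth effect; inactive = the rest, general growth blockers included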;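 note: wells of about 50 µL received 100 nL stock; 0% = vehicle wells and 100% = reference inhibitor wells; whole bacteria with a GFP reporter of the hypoxia response; strong numbers were not always called active; many hits fall short of the cut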
PrP 5UTR inh: suppresses PrP 5' UTR mRNA reporter expression | cell-based PrP 5' UTR mRNA reporter, plate reader | inhibition, % (concentration not given with the values) | 0.35% of 340,000 active | AID 488862;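 active = every replicate at 50% or more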;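 note: 0 = median of the neutral control wells; tested in H4 reporter cells; numbers are from one replicate; inactives centre near -14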
Sa RN4220 lethal: S. aureus RN4220 growth inhibition; OD600, 16 h; inhibition, % (no concentration beside the values); 0.33% of 330,000 active;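 active = z-score of -3 or lower and OD600 up to 0.18 on both plates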;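 note: plate controls were untreated cells for no effect and reference antibiotic for full effect; stock transfer was 100 nL into about 80 µL; one replicate is shown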
Mtb hypoxia rep growth: also measured in Mtb hypoxia rep; calls as there; growth inhibition, %; measured here: M. tuberculosis growth (absorbance);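 0% = vehicle and 100% = reference antibiotic; read after six days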
Active calls of the source: *; ? = inconclusive; nt = no result given.

(1) CSc1nnc(-c2cccs2)n1C
(2) CSc1nsc(SCC(=O)Nc2nc3ccc(C)cc3s2)n1
(3) Cc1cccnc1Nc1ncnc(N)c1[N+](=O)[O-]
(4) N#CCCN(C(=O)COC(=O)CCc1c[nH]c2ccccc12)c1ccccc1
(5) O=C1NC(=O)/C(=C/c2cccc3ccccc23)S1
(6) COc1ccc(CCN2C(=O)CSC2=S)cc1OC
(7) CC(=NNc1ccc(Cl)c(C(=O)O)c1)c1cccs1
(8) CSCCC(NC(=O)COc1cccc2ccccc12)C(=O)O (centres undefined)

compound no.	1	2	3	4	5	6	7	8
BJeLR viability	2	-9	-13	-7	-11	-4	nt	3
ugtP null kill	4	-4	16	10	15	4	4	7
Autofluor counter	4024	2078	3765	4812	nt	3437	nt	5330
Mtb hypoxia rep	19	9	11	5	5	12	6	2
Mtb hypoxia rep growth	7	9	6	7	2	10	0	-8
PrP 5UTR inh	-53	-24	-19	-10	-7	-7	nt	-20
Sa RN4220 lethal	2.3	-0.5	5.8	2.3	32	6.7	2.8	2.5

(9) CCOc1ccccc1OCC(=O)Nc1nnc(COC)s1
(10) COc1ccccc1/C=C/C(=O)OCC(=O)c1c[nH]c2ccccc12
(11) COc1cccc(CNC(=O)CCCc2cn(C)c3ccccc23)c1
(12) CC(C)C(=O)N[C@H]1CCC2C3CC=C4C[C@@H](O)CC[C@]4(C)C3CC[C@@]21C (some centres undefined)
(13) CC(C)(C)C(=O)Nc1ccccc1C(=O)Nc1cc(Cl)ccc1Cl
(14) Nc1nc2ccccc2n1C(=O)c1ccco1
(15) Cc1cc(=O)n2nc(N3CCC(C(=O)NCc4cccnc4)CC3)sc2n1
(16) COc1ccccc1N1CCN(C(=O)C2CCN(C(=O)c3ccc(C(C)(C)C)cc3)CC2)CC1

compound no.	9	10	11	12	13	14	15	16
BJeLR viability	18	nt	-4	nt	-12	6	1	8
ugtP null kill	0	-7	1	7	1	nt	18	-7
Autofluor counter	?	4976	3683	2831	23417*	2216	?	5354
Mtb hypoxia rep	7	-3	11	8	1	nt	-5	7
Mtb hypoxia rep growth	-5	-3	6	8	6	nt	0	6
PrP 5UTR inh	-26	-24	-24	-17	1	-65	-14	-14
Sa RN4220 lethal	2.6	0.5	-2.3	0.5	-1.5	nt	26	3.5

(17) CCOC(=O)c1c(NC(=O)CCc2ccc(CC)o2)sc(C)c1C
(18) CN(CC(=O)NCC1CCCCC1)S(=O)(=O)c1ccc(F)cc1
(19) NC(=O)NC(=O)COC(=O)c1cccc(S(=O)(=O)N2CCCCCC2)c1
(20) CCN(CC)CCNC(=S)N1CCn2c(nc3ccccc32)C1
(21) O=C1CSC(c2ccc(F)cc2)N1c1ccccc1F (centres undefined)
(22) O=C(C1=C[C@H](c2ccc(C(F)(F)F)cc2)C[C@H](OCc2ccc(CO)cc2)O1)N1CCOCC1
(23) O=C(OCC(=O)N1CCOCC1)c1ccccc1SCC(=O)N1CCCC1
(24) CCOC(=O)c1sc(-c2ccccn2)nc1C

compound no.	17	18	19	20	21	22	23	24
BJeLR viability	-4	1	15	0	-6	5	8	-3
ugtP null kill	82	8	6	17	21	nt	3	9
Autofluor counter	?	2952	4787	9467	3746	3861	4964	3986
Mtb hypoxia rep	17	0	10	14	2	nt	nt	12
Mtb hypoxia rep growth	-2	4	11	6	2	nt	nt	12
PrP 5UTR inh	-19	-22	-20	-20	-15	2	-14	-43
Sa RN4220 lethal	7.7	2.8	2.8	3.5	0.0	nt	-0.3	3.8

(25) COC(=O)c1cc(NS(=O)(=O)c2ccc(NC(C)=O)cc2)ccc1Cl
(26) O=c1c(Cc2ccc(F)cc2)c(O)ccn1Cc1ccco1
(27) CC(=O)c1c(N2CCCCC2)nc(=O)n(-c2ccccc2)c1C
(28) Cc1ccc(C(C)C)c(OCc2ccc(C(=O)N/N=C/c3ccc(O)cc3O)cc2)c1
(29) CN1CCN(CCCNC(=O)c2ccc3c(Cl)c4c(nc3c2)CCCC4)CC1
(30) CCOCCCNC(=O)c1ccccc1SCC
(31) COc1ccc(CNc2ncnc3cc(OC)c(OC)cc23)cc1OC
(32) O=C(Cn1cnc2ccccc2c1=O)N1CCN(c2ccccc2)CC1

compound no.	25	26	27	28	29	30	31	32
BJeLR viability	5	-19	-8	35	15	2	3	9
ugtP null kill	-4	10	1	nt	1	3	-11	-1
Autofluor counter	5199	3327	2867	2475	4286	7922	3278	3792
Mtb hypoxia rep	-16	3	nt	nt	23	5	-2	17
Mtb hypoxia rep growth	-4	-2	nt	nt	-1	0	-1	19
PrP 5UTR inh	-25	-19	-29	35	2	-13	-6	-22
Sa RN4220 lethal	0.8	-0.2	2.6	nt	-1.2	-4.1	0.8	4.8

(33) O=c1[nH]c(=O)n(C2CCCCC2)c(O)c1/C=C/C=Nc1ccccc1
(34) C/C(=N/NC(=O)c1cc(O)c(O)c(O)c1)c1ccc([N+](=O)[O-])cc1
(35) COC(=O)c1ccc(NC(=O)Nc2ccc(F)cc2F)cc1
(36) Cn1c(CN(O)S(=O)(=O)c2ccc(Cl)cc2)nnc1C(F)(F)F
(37) COc1ccc2c(c1)-c1nc(NC(=O)c3ccco3)sc1CC2
(38) O=C(C(c1ccccc1)N1CCOCC1)N1CCOCC1 (centres undefined)
(39) CCOC(=O)CCCCC(=O)c1[nH]c(=O)[nH]c1CSc1nc(-c2ccccc2)c(C#N)c(=O)[nH]1
(40) O=S1(=O)CCO[C@H]2Cc3ccccc3[C@H]2N1Cc1cccc(F)c1

compound no.	33	34	35	36	37	38	39	40
BJeLR viability	8	-10	-1	-1	-15	3	12	-4
ugtP null kill	-1	nt	4	1	5	-3	1	nt
Autofluor counter	5630	2404	2241	5071	2421	2820	5259	4141
Mtb hypoxia rep	11	nt	11	-6	15	nt	-1	nt
Mtb hypoxia rep growth	6	nt	4	-4	9	nt	-7	nt
PrP 5UTR inh	-3	1	-74	-5	-54	-8	-4	-12
Sa RN4220 lethal	5.6	nt	2.0	0.0	4.4	0.3	-0.9	nt

(41) CCOC(=O)C1/C(=N\O)CC(C)(O)C(C(=O)OCC)C1c1ccc(OC)c(OC)c1 (centres undefined)
(42) COc1ccc(NC(=O)C2CCC(C)(C(=O)O)C2(C)C)cc1 (centres undefined)
(43) O=C(Nc1cccnc1Cl)c1cc([N+](=O)[O-])ccc1Cl
(44) COC(=O)c1cc2ccc(OC)cc2c2cc(OC)c(OC)cc12
(45) COc1ccc(-c2nnc(SCC(=O)OC3CCCCC3)o2)cc1OC
(46) CCCc1nnc(SCC(=O)Nc2ccc(OC)cc2)o1
(47) C1N2CN3CN1CN(C2)C3
(48) Cc1c(-n2c(-c3ccccc3Cl)n[nH]c2=S)c(=O)n(-c2ccccc2)n1C

compound no.	41	42	43	44	45	46	47	48
BJeLR viability	-10	4	-8	nt	nt	0	nt	-4
ugtP null kill	nt	1	6	-6	3	10	4	4
Autofluor counter	2898	3696	4245	3518	19136*	2936	6217	3693
Mtb hypoxia rep	nt	nt	5	0	2	3	-3	12
Mtb hypoxia rep growth	nt	nt	10	8	5	-7	-7	7
PrP 5UTR inh	-5	9	-11	-12	-12	-20	-42	-4
Sa RN4220 lethal	nt	-0.7	3.3	-4.1	2.4	0.0	2.4	8.6

Some of the entries so far, as labelled records.
40	O=S1(=O)CCO[C@H]2Cc3ccccc3[C@H]2N1Cc1cccc(F)c1
  BJeLR viability = -4
  ugtP null kill = nt
  Autofluor counter = 4141
  Mtb hypoxia rep = nt
  Mtb hypoxia rep growth = nt
  PrP 5UTR inh = -12
  Sa RN4220 lethal = nt
7	CC(=NNc1ccc(Cl)c(C(=O)O)c1)c1cccs1
  BJeLR viability = nt
  ugtP null kill = 4
  Autofluor counter = nt
  Mtb hypoxia rep = 6
  Mtb hypoxia rep growth = 0
  PrP 5UTR inh = nt
  Sa RN4220 lethal = 2.8
28	Cc1ccc(C(C)C)c(OCc2ccc(C(=O)N/N=C/c3ccc(O)cc3O)cc2)c1
  BJeLR viability = 35
  ugtP null kill = nt
  Autofluor counter = 2475
  Mtb hypoxia rep = nt
  Mtb hypoxia rep growth = nt
  PrP 5UTR inh = 35
  Sa RN4220 lethal = nt

(more compounds)
(49) Cc1ccc(S(=O)(=O)N2CCN(C(=O)COC(=O)C3(C)CC3(Cl)Cl)CC2)c(C)c1 (centres undefined)
(50) CCCCCN(C(=O)CCC(=O)OCc1cccc(Br)c1)c1c(N)n(CCCC)c(=O)[nH]c1=O
(51) COC(=O)NC(NS(=O)(=O)c1ccccc1)(C(=O)OC)C(F)(F)F (centres undefined)
(52) CC(=O)Nc1cccc(NC(=O)CSc2nccn2Cc2ccc(F)cc2)c1
(53) Cc1ccccc1C(=O)N1CCC(C(=O)Nc2ccc3c(c2)OCCO3)CC1
(54) CN1CCN(C(=O)C2CC(=O)N(c3ccc(Cl)cc3)C2)CC1 (centres undefined)
(55) Cc1ccc(NC(=O)[C@@]2(CC(=O)O)CC(/C=C/c3ccccc3)=NO2)c(C)c1
(56) O=C(O)CN(C1CCCCC1)S(=O)(=O)c1ccc(F)cc1

compound no.	49	50	51	52	53	54	55	56
BJeLR viability	nt	-2	2	2	1	-11	9	6
ugtP null kill	3	2	-6	11	8	2	6	6
Autofluor counter	3981	?	4883	6151	2315	6687	3366	4152
Mtb hypoxia rep	-6	0	8	11	nt	-1	3	2
Mtb hypoxia rep growth	0	1	-3	2	nt	5	4	-6
PrP 5UTR inh	-15	-13	-20	-35	-18	-1	3	-12
Sa RN4220 lethal	3.1	0.3	21	4.0	0.2	1.8	-2.9	4.0

(57) Cc1ccc(OCCC(=O)Nc2ccccc2C(=O)NC2CC2)cc1
(58) Nc1cc(N)nc(SCC(=O)Nc2ccccc2N2CCOCC2)n1
(59) Cc1cccc(/C=N\NC(=O)c2ccccc2-n2cccc2)c1
(60) CC(C)CN(CCCNC(=O)CN1C(=O)COc2ccc(S(=O)(=O)N3CCCC3)cc21)CC(C)C
(61) CCC1c2ccc(C)n2CCN1C(=O)Nc1ccccc1C(=O)OC (centres undefined)
(62) Cc1ccccc1-n1c(C)nnc1SCC(=O)NCC1CCCO1 (centres undefined)
(63) Cc1nc(Cl)c2oc3ccccc3c2n1
(64) O=C(CN1C(=O)NC2(CCCC2)C1=O)Nc1ccccc1F

compound no.	57	58	59	60	61	62	63	64
BJeLR viability	-4	10	-1	1	3	-7	-4	-13
ugtP null kill	-5	3	nt	-1	-4	-1	-2	11
Autofluor counter	4992	4408	3198	3393	4297	8475	4480	10540
Mtb hypoxia rep	1	-9	nt	4	10	-2	4	5
Mtb hypoxia rep growth	9	7	nt	6	8	1	6	4
PrP 5UTR inh	-16	-4	-15	-6	-10	-10	-13	-24
Sa RN4220 lethal	0.4	7.0	nt	4.0	-8.7	2.6	4.5	1.4

(65) Cc1nn2c(N3CCCC3)cc(C(C)C)nc2c1-c1ccccc1
(66) COc1ccc(CNC(=O)c2cc(C)nn2-c2ccccc2)cc1
(67) Cc1cc2ccccc2n1CCNC(=O)c1ccc(Br)o1
(68) CCOc1cccc(NC(=O)CC#N)c1
(69) C=CCC(CC=C)(NC(=O)c1ccccc1C)c1ccccc1
(70) CCOC(=O)N1CCC(N2Cc3cccc(C(=O)NCc4ccc(C)cc4)c3C2=O)CC1

compound no.	65	66	67	68	69	70
BJeLR viability	-5	5	-15	9	4	-6
ugtP null kill	33	10	9	6	0	-7
Autofluor counter	4056	4800	1384	4781	4813	5662
Mtb hypoxia rep	12	3	16	3	8	-1
Mtb hypoxia rep growth	17	10	22	-1	9	16
PrP 5UTR inh	-5	-20	-14	4	6	-4
Sa RN4220 lethal	-1.5	0.6	18	2.0	12	-7.1

Bioassay records from PubChem.
